Source: PubChem (National Center for Advancing Translational Sciences (NCATS))
hNpr1 antagonist: human Npr1 receptor antagonism; HEK293 hNpr1 GloSensor cGMP, ANP-stimulated luminescence; hit rate 1.6% among 76,000; Potency, µM (top dose mostly 46.3 µM), inactives show top-dose activity change, negative = inhibition, actives largely listed as inhibitors; P16066; AID 1347048; active = well fitted inhibition curve with a large enough effect; inconclusive = small, poorly fitted or top-dose-only effect; inactive = no such curve, though single readings can be large or run the other way;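 also: nearly all actives have a fitted effect of over 60% in size; nearly all hits also lower the signal before the agonist is added; a reference antagonist and vehicle were the controls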
Target sequence (P16066 whole entry, looked up): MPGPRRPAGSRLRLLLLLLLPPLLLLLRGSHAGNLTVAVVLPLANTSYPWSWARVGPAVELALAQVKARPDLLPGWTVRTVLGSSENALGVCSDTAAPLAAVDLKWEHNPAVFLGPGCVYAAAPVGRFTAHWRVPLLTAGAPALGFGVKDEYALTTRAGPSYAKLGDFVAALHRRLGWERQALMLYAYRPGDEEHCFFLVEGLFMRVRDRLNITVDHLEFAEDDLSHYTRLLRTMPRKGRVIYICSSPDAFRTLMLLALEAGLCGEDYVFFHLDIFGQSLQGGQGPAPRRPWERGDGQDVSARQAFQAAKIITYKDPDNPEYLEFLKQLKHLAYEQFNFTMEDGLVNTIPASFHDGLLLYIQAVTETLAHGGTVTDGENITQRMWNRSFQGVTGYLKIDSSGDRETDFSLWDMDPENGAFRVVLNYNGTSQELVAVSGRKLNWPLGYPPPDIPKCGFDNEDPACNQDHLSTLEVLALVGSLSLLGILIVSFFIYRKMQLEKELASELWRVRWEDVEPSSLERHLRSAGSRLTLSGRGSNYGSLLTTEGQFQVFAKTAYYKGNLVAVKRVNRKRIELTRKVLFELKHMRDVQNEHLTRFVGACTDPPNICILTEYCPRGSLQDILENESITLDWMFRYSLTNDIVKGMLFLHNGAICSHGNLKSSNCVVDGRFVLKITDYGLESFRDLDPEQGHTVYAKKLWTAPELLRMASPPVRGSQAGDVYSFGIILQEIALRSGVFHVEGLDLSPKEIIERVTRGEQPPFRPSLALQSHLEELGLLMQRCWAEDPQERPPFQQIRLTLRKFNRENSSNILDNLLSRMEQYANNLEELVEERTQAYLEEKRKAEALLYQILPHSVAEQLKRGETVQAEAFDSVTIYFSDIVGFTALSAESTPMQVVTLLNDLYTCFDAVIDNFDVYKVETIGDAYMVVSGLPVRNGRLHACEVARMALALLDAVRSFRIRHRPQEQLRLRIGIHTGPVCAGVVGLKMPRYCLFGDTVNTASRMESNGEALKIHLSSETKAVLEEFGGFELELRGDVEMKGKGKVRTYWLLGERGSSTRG
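HEK293 cells stably expressing human Npr1 and cGMP GloSensor pGS-40F, loaded 2 h with 2% GloSensor reagent, given compound 30 min at room temperature. Luminescence read before and 20 min after 0.1 nM hNppA.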
* marks the source's active call; other numbers are inactive results; ? = inconclusive; & = joins results of further samples; [ ] = remark or other dose. % is scaled to controls: 0 for no effect and ±100 for the full control effect; potency is read from the fitted curve at half-maximal effect. Only part of the results is shown, so the mix of outcomes need not match the whole.

hNpr1 antagonist | SMILES
4% | CCc1ccc(NC(=O)Cn2ccn3nc(-c4ccc(F)cc4)c(CO)c3c2=O)cc1
3.5µM* | OC1(Cc2cc(-c3ccccc3)no2)CCN(c2ncncn2)CC1
13% | CCCC(=O)N1CCc2nc(OCC)ccc2C1
-20% | O=C(NC1CCCCC1)C1CN(S(=O)(=O)c2ccccc2F)CC12CCOCC2 (configuration not stated)
-3% | CCc1ccc(Nc2nc(C)cc(=O)n2CC(=O)c2ccc(F)cc2)cc1
62%&-7%[activator] | O=C(c1ccccc1Cl)N1CCC2(C1)C(=O)N(CCc1ccccc1)c1ccccc12 (configuration not stated)
6%[70.6 µM] | COC[C@H]1CCCN1[C@@H]1[C@H](O)[C@H](CO)O[C@@H]1CNC(=O)C1CCCC1
-17% | Cc1ccccc1OCc1nc(C2CN(C(=O)c3ccc4ccccc4n3)C2)no1
5%[70.6 µM] | O=C(NCc1ccc(F)cc1)C1CN(c2cccc(Cl)c2)C(=O)N1 (configuration not stated)
-1% | Cc1nn(-c2cccc(Br)c2)c(C)c1[C@@H]1C=C[C@@H](NC(=O)CC(C)(C)CC(=O)O)C1
4% | O=C(Cn1nc2c(cc1=O)CCCC2)NCCc1cccc(F)c1
12% | O=C(Nc1ccc([C@H]2OCC(=O)N(Cc3cccnc3)[C@@H]2CO)cc1)c1ccnc(Cl)c1
4% | CC(C)CC(=O)N1CCC2(CC1)CN(c1ccccc1)C2=O
-21%[70.6 µM] | COCCn1cnc2ccc(OCc3ccc(C(F)(F)F)cc3)nc2c1=O
-2% | O=C1NCCOCCN(C(=O)c2ccncc2)[C@H]2CCC[C@@H]12
1% | COCc1ccc2c(c1)c(OC(C)(C)C(=O)Nc1cc(C)nn1C)nn2Cc1cccnc1
-5% | CCOc1ccc(NC(=O)C2CCN(C(=O)c3ncn4c3COC(c3ccccc3)C4)CC2)cc1 (configuration not stated)
2%[70.6 µM] | COCC(=O)N(C)C1CCc2ccccc21 (configuration not stated)
2% | Cn1ncc(N2CCCC(CC(=O)NCCC3=CCCCC3)C2)cc1=O (configuration not stated)
-17% | CNC(=O)[C@@H]1CN(C(=O)c2cc(Cl)ccc2F)C[C@H]1COC
-18% | CC1=C[C@@H](CN2CCN(c3ncccn3)CC2)[C@H](C(C)C)C[C@H]1Cc1nnc(-c2cncn2C)o1
0% | O=C1CCN(Cc2ccc(F)cc2F)CCOCCN1
0%[70.6 µM] | CC(C)(C)CC(=O)N[C@H]1C[C@H]2C(=O)Nc3cc(Cl)ccc3C(=O)N2C1
12% | COc1ccc(CNC(=O)N2CCC3(CC2)CC(N2CCOCC2)CCO3)cc1 (configuration not stated)
10% | CN(C)C[C@@H]1CN(c2ncccn2)C[C@H]1NC(=O)C1(C)CCOCC1
8% | O=C(NC[C@H]1O[C@@H](CO)[C@@H](O)[C@H]1N1CCN(c2ccc(F)cc2)CC1)c1ccco1
4% | Cc1ccc(CNC(=O)N2C[C@@H](Oc3ccccc3)C[C@@H]2C(=O)N2CCOCC2)cc1
5% | COc1ccccc1N1CCN(C(=O)C[C@@H]2O[C@H](CNC(=O)NC(C)C)[C@@H](O)[C@H]2O)CC1
2% | COCC(=O)N1CCN2C(=O)c3cc(-c4cccc(C(F)(F)F)c4)ccc3NC(=O)[C@H]2C1
-1% | O=C1NCCCCCN(C(=O)NC2CCCCC2)[C@H]2CCCC[C@@H]12
-25% | COc1ccc(N2CCN(C(=O)CCc3conc3-c3ccc(F)cc3)CC2)cc1
1% | Cn1ccnc1CN1C(=O)CO[C@H](c2ccc(NC(=O)COc3ccccc3)cc2)[C@H]1CO
2% | O=C(c1ccc(F)cc1)N1C[C@@H]2C[C@H](C1)c1c(NS(=O)(=O)c3cccc(F)c3)ccc(=O)n1C2
1%[70.6 µM] | CN1[C@@H](CCC(=O)N2CCOCC2)CNC(=O)[C@@H]2[C@H]1CCN2C1CCOCC1
5% | COC(=O)[C@H](NC(=O)C1=C[C@@H](NC(=O)CC2(CC(=O)O)CCCC2)[C@@H](O)[C@H](O)C1)C(C)C
-16%[70.6 µM] | COc1ccccc1-c1[nH]nc2ncc(-c3ccc(C)cc3)nc12
16%[70.6 µM] | CC(=O)Nc1ccc(CN(C)C(C)c2cccs2)cc1 (configuration not stated)
6% | O=C1CC(c2ccccc2)N(C(=O)Cc2cccnc2)CCCCCN1 (configuration not stated)
7% | CN(C)C[C@@H]1CN(c2ccncn2)C[C@H]1NC(=O)NC1CCCCC1
0%[70.6 µM] | O=C1Nc2ccccc2CC12CCN(Cc1cccnc1)CC2
-13% | O=C1[C@H]2CN(Cc3cccc(Cl)c3)C[C@H]2C(=O)N1CCN1CCc2ccccc2C1
? | CC1Oc2ccc(NC(=O)c3ccc(F)cc3F)cc2CN(Cc2ccc(Cl)cc2)C1=O (configuration not stated)
-3%[70.6 µM] | COc1cccc(Nc2ncc3c(n2)C(C)(C(=O)NCCN2CCOCC2)CC3)c1 (configuration not stated)
-1% | O=C(CCc1cc(Cl)no1)NCCc1noc(C2CC2)n1
1% | COc1ccc(NC(=O)N2C[C@@H]3C[C@H](C2)c2ccc(NC(=O)COc4ccccc4)c(=O)n2C3)cc1
5%[70.6 µM] | COC[C@H]1CCCN1C(=O)CC[C@@H]1CNC(=O)[C@@H]2C[C@H](NC(=O)c3ccccc3)CN12
-2% | COC[C@@H]1CN(C(=O)CC(C)C)C[C@H]1c1nc(C)no1
4%[70.6 µM] | O=C(O)C[C@@H]1CCN(C(=O)C2CC2)C[C@@H]1CCN1CCN(c2ccccc2)CC1
? | Cc1ccc(CN2CCCn3nc(C)c(-c4ccccc4-c4ccccc4)c32)o1
-7% | Cc1ccc(NC(=O)Cn2cccc2-c2nc(-c3ccc(F)cc3)no2)c(Cl)c1
3% | CCN1C(=O)C2CC3(CCN(Cc4cn[nH]c4-c4ccccc4)CC3)CN2C1=O (configuration not stated)
-1%[70.6 µM] | COc1ccc(C(=O)NCC2(COc3cnccn3)C[C@@H](O)[C@@H](O)C2)cc1 (some centres not stated)
4%[70.6 µM] | CC[C@H]1CN(S(=O)(=O)c2c(C)noc2C)CC[C@H]1CC(=O)NCCSC
2% | C=CCC1(CO)CCCN(CCS(=O)(=O)c2ccccc2)C1 (configuration not stated)
-1% | Cn1cnc(S(=O)(=O)N2C[C@@H](Oc3ccccc3)C[C@H]2C(=O)N2CCOCC2)c1
-3% | CSc1ccc(CNc2ncncc2-c2nc(-c3ccccc3)no2)cc1
3% | O=C(Nc1ccc2c(c1)C(=O)N1CCC[C@H]1C(=O)N2)c1cc(-c2ccccn2)n[nH]1
-1% | COc1ccc(C2(C(=O)N3CCCCCC3c3nc(-c4cccnc4)no3)CC2)cc1 (configuration not stated)
-11%[70.6 µM] | O=C1COCC2(CN1Cc1c(F)cccc1Cl)CN(c1ccccc1)C2
4% | Cc1ccc(C(=O)NCC2(C)CCOCC2)cn1

More records.
hNpr1 antagonist | SMILES
30%[70.6 µM] | COCCNC(=O)C1CN(c2cccc(OC)c2)C(=O)N1 (configuration not stated)
6% | CCOc1ccccc1-c1noc(-c2nc(C)no2)n1
-1% | Cn1cc(Cl)cc1C(=O)N1CC[C@@]2(O)CCN(C(=O)C3CCC3)C[C@H]2C1
-18% | O=C1CC[C@@H](CN(Cc2ccncc2)C(=O)c2ccc3nccn3c2)N1
-10% | Cc1nn(-c2ccc(F)cc2)c(Oc2ccccc2F)c1CCC(=O)N1CCCC1
-24%[70.6 µM] | CC(C)C[C@@H]1N[C@H](C(=O)NC2CCC2)Cc2cn(Cc3ccccn3)c3cccc1c23
7%[70.6 µM] | Cc1nn(CCC#N)c(C)c1[C@@H]1C=C[C@@H](NC(=O)NC(C)C)C1
-9% | COc1ccccc1C(C)N(C)C(=O)c1csc2nc(-c3ccccc3C)cn12 (configuration not stated)
23% | O=C(NCc1ccc(F)cc1)N1CCCC(Cc2noc(-c3cnccn3)n2)C1 (configuration not stated)
0% | COCCNC(=O)[C@@H]1C[C@H](Oc2ccccc2)CN1C(=O)Nc1ccc(C)c(C)c1
5% | Cc1cccc(CC(=O)N2CCC(N3CC4CC(C3)[C@H]3CCCC(=O)N3C4)CC2)c1 (some centres not stated)
-13% | COc1ccc(C(=O)N2CCC3(CC2)N(C)C(=O)CS3(=O)=O)c(C)c1
0% | CC1CCN(C(=O)CCN2C[C@H](NS(C)(=O)=O)[C@@H](C(C)C)C2)CC1
-1% | NS(=O)(=O)c1ccc(F)c(C(=O)N[C@@H]2c3ccccc3C[C@@H]2O)c1
? | O=C(NCc1ccncc1)c1cc(CN2CCC(Cc3ccccc3)CC2)on1
6%[70.6 µM] | COCC1(CNC(=O)c2ccc(F)cc2)C[C@@H](O)[C@@H](O)C1 (some centres not stated)
-19% | CCc1noc(-c2cn(C3CCN(C(=O)c4ccc(C)s4)CC3)nn2)n1
2% | Cc1ccc(C2NC(=O)N(CC(=O)Nc3ccc4c(c3)OCO4)C3=C2C(=O)OC3)cc1 (configuration not stated)
9% | CCN(Cc1nccn1C)C(=O)c1ccc(NCc2cccc(C)c2)nc1
-10% | Cc1nc(CN2C(=O)OC3(CCN(CCc4ccccc4)CC3)C2(C)c2ccccc2)cs1 (configuration not stated)
? | COc1ccc(C2Cn3cnc(-c4nc(-c5cccs5)no4)c3CO2)cc1 (configuration not stated)
0% | Cn1cccc1C(=O)C(=O)Nc1nn(C)c2cccc(N3CCOC3=O)c12
-4%[70.6 µM] | COc1ccc(C(=O)N2CCCCC23Cc2ccccc2NC3=O)cc1 (configuration not stated)
4% | Cc1nc([C@@H]2CN(S(=O)(=O)c3ccc(C#N)cc3)C[C@H]2C(N)=O)n[nH]1
4% | CN1CCCN(C(=O)CCn2cnnn2)c2ccccc21
-17% | Cc1oc2ccn(Cc3ccccc3F)c(=O)c2c1C(=O)NCCCN1CCCCC1C (configuration not stated)
5% | Cc1ccn(CCC(=O)NCc2cccnc2Oc2ccc(F)c(F)c2)n1
-5% | CN(C)C(=O)C1CN(C(=O)COc2ccccc2)CC12CCOCC2 (configuration not stated)
? | CCN1C(=O)CCc2cc(NC(=O)c3ccc(C(C)C)cc3)ccc21
6% | c1cnn(CCC2CCN(Cc3ccc4[nH]ccc4c3)CC2)c1
? | Cc1cc(NC(=O)C2CCN(c3cc(C(F)(F)F)ncn3)CC2)ccc1Br
0%[70.6 µM] | CN(Cc1cccnc1)Cc1ccccc1C(F)(F)F
-23%[70.6 µM] | CC(=O)Nc1cccc(-c2cnc3n[nH]c(-c4ccccc4C)c3n2)c1
3% | COc1cc(C)sc1C(=O)NCC1CCN(c2cnn(C)c(=O)c2)C1 (configuration not stated)
? | Cc1ccsc1C(=O)N1CCCC(n2cc(-c3nc(C(C)C)no3)nn2)C1 (configuration not stated)
-18% | O=C(NC1CCCc2c1[nH]c1c(Cl)cccc21)c1n[nH]c2c1CCC2 (configuration not stated)
3% | CNC(=O)N1CCC(C2CCN(C(=O)c3nccn3C)C2)CC1 (configuration not stated)
-13% | CCn1nccc1C(=O)N1CCN(c2cc(-c3ccccc3)[nH]n2)CC1
12% | Fc1ccc(Cc2nc3nccc(-c4ccncc4)n3n2)cc1
7% | O=C1CCN(S(=O)(=O)c2ccc3c(c2)OCCO3)CCCCCCN1
2% | Cn1ncc(N2CCC(C(=O)NC3CCCC3)C2)cc1=O (configuration not stated)
3%[70.6 µM] | O=C(O)c1ccc(CN[C@@H]2CO[C@H](CNC(=O)c3ccncc3)[C@H]2O)cc1
6% | Cc1cnc(CCNC(=O)C2CC2)n1CC1CC1
3% | CCOc1ccccc1C(=O)N[C@@H]1CN(c2ccncn2)C[C@H]1CO
-7% | O=C(N[C@@H]1CN(c2ncccn2)C[C@H]1CO)C1CC=CC1
-12% | CCS(=O)(=O)N1C[C@@H](COC)[C@H](C(N)=O)C1
2%[70.6 µM] | CC(C)(C)CNC1(Cc2cc(COc3ccccc3)on2)COC1
-3% | CS(=O)(=O)N1CCC(C2CCN(C(=O)c3ccc(Cl)s3)C2)CC1 (configuration not stated)
8%[70.6 µM] | CN(C)c1ccc(-c2nnc([C@H]3CCN(CC4CC4)C3)o2)cc1
1% | CCc1cc(CN2CC[C@@H](c3ccc4c(c3)OCO4)[C@H](O)C2)[nH]n1
